# Screening results: PubChem BioAssay, ICCB-Longwood Screening Facility, Harvard Medical School
# HCMV NEC inh: inhibitors of HCMV UL50-UL53 interaction, biochemical, HTRF. AID 1918969, 2023. inhibition, % (test concentration not listed). HCMV UL50-UL53 nuclear egress complex (human cytomegalovirus). normalized percent inhibition. actives 0.15% (n = 190,000);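 active means both replicates at 50% or more, plus weaker picks with an unusually low signal ratio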;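 further: stock transfer was 100 nL into about 20 µL; 0% = negative control wells and 100% = wells with untagged competitor protein; inactives centre near -12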
# Sa growth inh: S. aureus growth inhibition at 42 and 30 °C, primary screen, LtaS inhibitor project, RN4220, two temperatures; OD600, 20 h, 42 °C; active compounds read low; relative growth, % (concentration not given with the values); actives 0.53% (n = 170,000);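 active means growth at 42 °C up to 50% and 20 or more points under that at 30 °C, or under 10% at both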;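 further: 300 nL library stock went into each well; scaled to the means of positive and negative controls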
# GIV-Gai inh: inhibitors of GIV peptide binding to Galpha-i3, primary screen, biochemical, fluorescence polarization, FITC-GIV GBA peptide, rat Galphai3; 90 min; active compounds read low; scaled: aluminum fluoride 0%, vehicle 100%; percent of control (FP), % (no concentration beside the values); actives 0.42% (n = 210,000); AID 1224905, 2016;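 active means replicate mean at 85% of control or lower, very high polarization wells dropped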;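 further: wells of about 15 µL received 100 nL stock; the first replicate is given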
# Target sequence (P08753 whole entry, looked up): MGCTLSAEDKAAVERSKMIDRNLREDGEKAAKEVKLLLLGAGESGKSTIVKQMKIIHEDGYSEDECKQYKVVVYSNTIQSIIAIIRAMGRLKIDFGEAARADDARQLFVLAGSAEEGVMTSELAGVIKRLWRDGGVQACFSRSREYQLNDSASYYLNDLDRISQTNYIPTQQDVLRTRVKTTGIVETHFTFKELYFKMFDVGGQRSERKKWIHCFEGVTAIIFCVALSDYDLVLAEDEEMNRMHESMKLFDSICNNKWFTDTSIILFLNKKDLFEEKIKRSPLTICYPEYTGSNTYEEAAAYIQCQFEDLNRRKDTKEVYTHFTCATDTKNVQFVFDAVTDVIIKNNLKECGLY
# Sa growth inh second temp: further read-out of Sa growth inh, marked with its call; relative growth, %; measured here: growth at 30 °C;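 optical density after 20 h as mean of two plates; 100% = untreated growth and lower means inhibition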
# Starred values were filed as active, the others as inactive; . = no result given; & = joins results of further samples.
SMILES,HCMV NEC inh,Sa growth inh,Sa growth inh second temp,GIV-Gai inh
Cc1ccc(/C=N/n2cnnc2)o1,-72.7,105.8,93.0,102.8
c1ccc(N2CCN(c3ccccc3)C2c2cccs2)cc1,-26.1,106.4,85.8,107.5
Cc1cccc(NC(=O)CC2S/C(=N/c3nccs3)N(C)C2=O)c1 (configuration not stated),-6.2,98.8,74.5,103.7
CCCCCC(=O)Nc1ccc(C(=O)CSc2nnc3n2CCCCC3)cc1,-23.1,84.9,87.1,.
CCN(CC)c1ncn(Cc2c(Cl)cccc2Cl)c2ncnc1-2,-10.6,86.8,89.9,.
CN1C(=O)c2cc(C(=O)N3CCOCC3)nn2CC1(C)C(=O)NC1CCCC1 (configuration not stated),-9.1,.,.,99.4
CCc1ccc(NC(=O)CCNS(=O)(=O)c2cccc3nsnc23)cc1,.,107.7,80.1,99.0
Cc1noc(-c2ccc(-c3noc(-c4cccc(F)c4)n3)cc2)n1,.,107.2,87.7,97.8&102.7
N#CC(c1ccccc1)c1ccc(C(=O)c2ccccc2)cc1 (configuration not stated),-4.0,.,.,102.1
CC(C)=CC(=O)Nc1nnc(Sc2ccnc3cc(Cl)ccc23)s1,-4.3,108.0,90.6,105.2
CCCCNC(=O)c1ccc(N2CCCS2(=O)=O)cc1,-26.8,.,.,95.4
Cc1nsc(-c2ccc(Cl)cc2)n1,-4.9,120.2,100.0,104.6
CC1=C(C(=O)Nc2ccccc2C)C(c2ccccn2)n2ncnc2N1 (configuration not stated),.,74.3,92.4,100.3
Cc1ccc(NC(=O)Cn2c(=O)n(CCc3ccccc3)c(=O)c3ccccc32)cc1,8.2,94.2,90.6,106.1
Cc1[nH]n(-c2ccccc2)c(=S)c1C=Nc1cccc(Br)c1,.,90.0,87.9,105.7
CCSc1ncnc2sc3c(c12)CCCC3,-19.5,81.2,80.2,98.8
CCOCCCN1C(=O)c2[nH]nc(-c3ccccc3O)c2C1c1ccc(CC)cc1 (configuration not stated),-5.5,90.0,72.4,105.0
CCOC(=O)c1oc2nc(-c3ccccc3)cc(C)c2c1NC(=O)Nc1ccc(Cl)cc1,-16.0,102.5,94.9,109.2
COC(=O)c1c(NC(=O)c2nc(SCc3ccc(F)cc3)ncc2Cl)sc2c1CCC2,-11.8,.,.,108.8
CC(Sc1nc2ccccc2c(=O)[nH]1)C(=O)Nc1ccc2c(c1)OCO2 (configuration not stated),23.8,108.2,101.6,.
NC(=O)N/C(CSCc1ccc(Cl)cc1)=N/O,-15.8,76.3,85.9,100.7
COc1ccccc1N1CCN(CCCC#N)CC1,-2.3,91.0,92.2,99.7
N#CCCN(Cc1ccccc1)C(=O)C1CCN(c2nccc(C(F)(F)F)n2)CC1,-32.2,94.1,88.4,101.8
COC(=O)c1cnc(N(C)Cc2ccccc2)c2ccccc12,-1.9,87.0,73.6,99.1&104.8
Cn1nc(C(=O)Nc2ccc3c(c2)OCO3)cc1C(F)(F)F,-24.9,.,.,102.4
# More records.
SMILES,HCMV NEC inh,Sa growth inh,Sa growth inh second temp,GIV-Gai inh
CCc1nn(CC(=O)NCC2CCCO2)c(=O)c2cc3ccccc3n12 (configuration not stated),-52.3,.,.,96.0
CCOC(=O)N1CCC(N2Cc3cccc(C(=O)N4CCN(c5cccc(C)c5C)CC4)c3C2=O)CC1,-6.2,106.9,85.0,100.9
CCOC(=O)/C=C1\SCC(=O)N1CCOC(=O)c1c(-c2ccccc2)noc1C,3.8,100.0,93.4,.
O=S(=O)(NC1CCCCC1)c1ccc(-c2nnc(C3CC3)o2)s1,-19.9,.,.,110.3
Cc1ccc(C2N=C(N)Nc3nc4ccccc4n32)cc1 (configuration not stated),.,99.4,89.2,103.6
O=C(O)c1cc(N2CCN(c3ncccn3)CC2)nc2ccc(NS(=O)(=O)c3ccc(F)cc3)cc12,-62.7,.,.,103.8
Cc1ccc(C)c(NC(=O)CN2C(=O)COc3ccc(Cl)cc32)c1,-24.2,98.6,91.7,111.3
CSc1nccc(-c2ccc(Cl)cc2)n1,-25.8,89.7,90.6,104.6
CC(C(=O)Nc1ccnn1C(C)C)N(C)CC(=O)Nc1ccccc1Cl (configuration not stated),-22.6,107.7,90.8,.
COc1ccc(CCNC(=O)CSc2nc(-c3ccco3)cc(C(F)(F)F)n2)cc1OC,-29.6,101.5,78.5,111.2
Cc1onc(-c2ccccc2)c1C(=O)N(Cc1ccc(N(C)C)cc1)C(C)C,.,106.1,89.1,105.2
CCC1CN(C(=O)N2CCC(C(=O)NCCc3ccc(C)cc3)CC2)c2ccccc2O1 (configuration not stated),-20.5,125.2,91.9,105.6
O=C(Nc1ccc(Oc2ccccc2)cc1)c1ccc(F)c(S(=O)(=O)N2CCN(c3cccc(Cl)c3)CC2)c1,.,105.8,95.4,101.1
CN1CCC(=NNC(N)=S)CC1,3.3,99.9,97.2,112.6
Cc1ccc(NC(=O)CN2C(=O)C(c3ccc(F)cc3)=NC23CCCCCC3)c(C)c1,7.9,95.1,83.4,103.8
Cc1cc(C)c2oc(-c3ccc(NC(=O)COc4ccccc4C)cc3)nc2c1,-55.5,85.9,88.2,104.9
Cc1cccc(OCC(=O)OCc2cc(=O)n3nc(C4CCCCC4)sc3n2)c1,.,114.7,90.9,110.2
COc1ccc(N2C(=O)NC(=O)/C(=C\c3cc(Br)c(N4CCOCC4)o3)C2=O)cc1,0.3,.,.,110.8
CCNC(=O)CCSc1nnc(-c2ccccc2C)o1,-15.4,110.8,77.2,102.9
NC12CCc3c(no[n+]3[O-])C1(O)CC(c1ccccc1)=[N+]2[O-] (configuration not stated),-22.9,103.9,113.4,99.2
O=C(NCCc1ccccc1)c1cc(-c2cccc(Cl)c2)on1,-10.7,100.4,90.3,98.7
CCN=c1sc(CC(=O)O)c(-c2ccc(Cl)cc2)n1CC,2.3,82.3,90.3,.
Cc1cccc(CNC(=O)C2CCC(CNS(=O)(=O)c3ccc4c(c3)CCCC(=O)N4)CC2)c1 (configuration not stated),.,94.5,86.7,105.4
CCn1c(SCC(=O)N/N=C/c2cccs2)nc2ccccc21,-61.2,94.9,85.1,97.5
Clc1cccc(CSc2nnc(C3CCNCC3)o2)c1,-12.9,91.2,94.3,114.0

# Sorted by the number under GIV-Gai inh (falling): three from the list above
canonical_smiles | Sa growth inh second temp | GIV-Gai inh
O=S(=O)(NC1CCCCC1)c1ccc(-c2nnc(C3CC3)o2)s1 | . | 110.3
CSc1nccc(-c2ccc(Cl)cc2)n1 | 90.6 | 104.6
O=C(Nc1ccc(Oc2ccccc2)cc1)c1ccc(F)c(S(=O)(=O)N2CCN(c3cccc(Cl)c3)CC2)c1 | 95.4 | 101.1

# Back to the main list, starting 2 compounds before the break.
SMILES,HCMV NEC inh,Sa growth inh,Sa growth inh second temp,GIV-Gai inh
CCn1c(SCC(=O)N/N=C/c2cccs2)nc2ccccc21,-61.2,94.9,85.1,97.5
Clc1cccc(CSc2nnc(C3CCNCC3)o2)c1,-12.9,91.2,94.3,114.0
COc1ccc2nc(SCC(=O)NC3CCCCC3C)c(C#N)cc2c1 (configuration not stated),-6.2,105.5,86.9,101.5
O=C(O)COCC(=O)N1CCN(Cc2ccc3c(c2)OCO3)CC1,-22.2,92.9,89.5,108.7
Cc1ccc(C(C2C(=O)CC(C)(C)CC2=O)C2C(=O)CC(C)(C)CC2=O)s1,-11.5,99.4,88.4,.
Nc1cc(=O)[nH]c(=O)n1Cc1ccncc1,-5.6,94.7,98.4,97.4
Cc1ccc(-c2noc(-c3nnn(CC(=O)Nc4cc(C)cc(C)c4)c3N)n2)cc1,.,97.2,78.9,115.5
Cc1ccc(C)c(Cn2c3ccccc3c3cnn(CC(=O)NC(C)CCc4ccccc4)c(=O)c32)c1 (configuration not stated),-10.9,103.0,88.3,110.2
CCC(=O)Nc1nc2c(s1)C(=O)CC(c1ccc(OC)cc1)C2 (configuration not stated),-4.5,101.0,98.2,111.1
Cc1csc2c(=O)nc3c(C#N)n[nH]n3c12,-45.3,78.3,81.5,102.5
COc1ccc(NC(=O)c2cc(-c3ccccc3O)no2)cc1,.,103.5,93.4,109.6
CC(C)c1nnc(NC(=O)c2nc(SCc3ccc(F)cc3)ncc2Cl)s1,-27.5,88.3,59.4,93.1
O=C(Nc1nc2c(F)cccc2s1)c1ccc2c(c1)OCCO2,.,114.2,87.7,100.0&111.0
CCc1ccccc1NC(=O)Cn1c(=O)n(CCc2ccccc2)c(=O)c2sc3ccccc3c21,-4.7,103.2,90.5,104.6
CCOc1ccccc1CNC(=O)Cn1cc2c(n1)-c1c(oc(C(=O)N3CCCC3)c1C)CC2,.,107.8,96.1,109.1
COc1ccc(NC(N)=O)cc1,5.0,104.6,100.4,.
COc1cc(OC)c(C2=NOC(C(=O)Nc3cc(C)nn3-c3ccccc3)C2)cc1Cl (configuration not stated),-5.5,123.0,88.7,108.4
Cc1cccc(-c2noc(CN(C(=O)CCC3CCCC3)C(C)C)n2)c1,2.1,76.8,101.3,104.4
C/C=C/C(=O)OCn1nnc2ccccc2c1=O,-37.3,91.8,95.7,.
CCOC(=O)c1c(C)[nH]c(C)c1S(=O)(=O)N(C)CC(=O)Nc1ccc(C)c(F)c1,.,108.0,92.5,109.3
Cc1nc2cc(C(=O)N3CCN(c4ccccn4)CC3)ccc2n(Cc2ccccc2)c1=O,-51.2,.,.,110.4
CC(C)Oc1ccccc1OCCCCn1cncn1,-7.8,104.6,97.0,95.5
O=c1c2ccc(C(F)(F)F)cc2nc2n1CCC2,2.7,93.2,90.2,.
COc1ccc(C2=C(C)C(N3CCC(C(=O)NCc4ccccc4)CC3)=NS2(=O)=O)cc1,-31.7,110.9,94.7,102.2
O=C(CCSC1=NCCS1)Nc1ccccc1Cl,-15.1,107.2,89.2,96.7
CC1=C(C(=O)OC2C3CC4CC(C3)CC2C4)C(CC(=O)O)C(=O)N1 (configuration not stated),-7.4,98.3,98.0,97.6
COC(=O)Cc1nc(-c2ccccc2)cs1,-1.4,128.8,94.5,.

# In the list so far, nine contain an aryl methoxy group:
SMILES,HCMV NEC inh,Sa growth inh,Sa growth inh second temp,GIV-Gai inh
COc1ccccc1N1CCN(CCCC#N)CC1,-2.3,91.0,92.2,99.7
COc1ccc(CCNC(=O)CSc2nc(-c3ccco3)cc(C(F)(F)F)n2)cc1OC,-29.6,101.5,78.5,111.2
COc1ccc(N2C(=O)NC(=O)/C(=C\c3cc(Br)c(N4CCOCC4)o3)C2=O)cc1,0.3,.,.,110.8
COc1ccc2nc(SCC(=O)NC3CCCCC3C)c(C#N)cc2c1 (configuration not stated),-6.2,105.5,86.9,101.5
CCC(=O)Nc1nc2c(s1)C(=O)CC(c1ccc(OC)cc1)C2 (configuration not stated),-4.5,101.0,98.2,111.1
COc1ccc(NC(=O)c2cc(-c3ccccc3O)no2)cc1,.,103.5,93.4,109.6
COc1ccc(NC(N)=O)cc1,5.0,104.6,100.4,.
COc1cc(OC)c(C2=NOC(C(=O)Nc3cc(C)nn3-c3ccccc3)C2)cc1Cl (configuration not stated),-5.5,123.0,88.7,108.4
COc1ccc(C2=C(C)C(N3CCC(C(=O)NCc4ccccc4)CC3)=NS2(=O)=O)cc1,-31.7,110.9,94.7,102.2

# Other results follow:
SMILES,HCMV NEC inh,Sa growth inh,Sa growth inh second temp,GIV-Gai inh
Cc1ccc(CNC(=O)C(C)n2ccc3cc(S(=O)(=O)N4CCCC4)ccc32)cc1 (configuration not stated),.,96.5,87.1,101.9
COc1ccc(NC(=O)c2ccccc2C)cc1CN1CCn2c(nc3ccccc32)C1,-18.7,.,.,96.8
O=C(Sc1nnc(-c2ccco2)n1-c1ccccc1)c1c(F)cccc1F,-3.4,88.7,84.8,.
CCC(=O)Nc1nc2ccc(NC(=O)C(C)C)cc2s1,-28.5,.,.,101.2
Cc1nc(N2CCCC2)ncc1C(=O)NCc1cccc(Cl)c1,.,93.2,87.0,104.4
CCCCNC(=O)c1ccc(Cn2c(=O)[nH]c3cc(OC)c(OC)cc3c2=O)cc1,-24.0,.,.,103.3
CCOc1ccc(C2c3c(oc4ccc(F)cc4c3=O)C(=O)N2CC2CCCO2)cc1 (configuration not stated),.,90.2,95.3,97.7
CCCN(S(=O)(=O)c1ccc(S(=O)(=O)N(CC)CC)cc1)S(=O)(=O)c1ccc2c(c1)OCCO2,-28.9,111.0,85.2,.
Cc1c(NC(=O)CN(c2ccc(Cl)cc2Cl)S(=O)(=O)c2ccccc2)c(=O)n(-c2ccccc2)n1C,-15.7,.,.,101.6
Cc1cc(NC(=O)C(CC(C)C)NC(=O)C2CCC(C)CC2)ccc1Br (configuration not stated),.,89.7,92.1,105.8
C[N+](C)(C)C[C@H](O)CC(=O)[O-],-45.3,88.1,88.1,.
Cn1cc(Br)c(-c2cccc(NC(=O)CCC(=O)O)c2)n1,-15.1,99.0,85.3,99.2
Cc1cccnc1NS(=O)(=O)c1ccc2[nH]c3c(c2c1)CCCC3,-0.9,.,.,101.9
O=C(NCCC1=CCCCC1)c1ccc(F)c(S(=O)(=O)N2CCOCC2)c1,-20.6,96.3,93.0,.
CCOc1cccc(C(=O)Nc2ccc(NC(=O)c3ccc(Br)cc3)cc2)c1,35.2,102.2,97.1,106.7
CCOc1ccc(S(=O)(=O)N2CCN(c3cccc(C(F)(F)F)c3)CC2)cc1OCC,-29.0,86.1,91.6,101.3
CC1CCN(Cc2cc(=O)n3[nH]c(NCc4ccccc4)nc3n2)CC1,-11.5,.,.,105.9
COc1ccccc1S(=O)(=O)Cc1ccc(C(=O)NCc2ccccc2)o1,-0.9,82.5,88.5,104.0
Cc1cc(-c2csc(NC(=O)/C=C/c3ccco3)n2)c(C)n1CC1CCCO1 (configuration not stated),-10.8,81.6,80.8,.
